Sa helicase inh: blocks Staphylococcus aureus DNA helicase | purified S. aureus helicase, fluorescence unwinding assay; about half of the hits fall short of the stated cut | inhibition, %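 (tested at about 80 µM)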 | actives 0.05% (n = 120,000) | AID 485395;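 active = both duplicates at 50% or more, or one of them with a favoured structure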;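 also: 0% = mean of negative control wells and 100% = mean of positive control wells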
MgrA DNA FP: modulators of Staphylococcus aureus MgrA DNA binding. fluorescence polarization. inhibition, %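 (about 10 µg/mL by stock and volumes)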. actives 0.13% (n = 84,000). AID 602314;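 active = above 50% in either of two replicates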;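 also: 0% = protein plus DNA without compound and 100% = DNA alone without protein; higher means less MgrA bound to DNA so lower polarization; one replicate is shown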
* hit, by the source's call; · = not tested or not shown; & = joins results of further samples.

Values run as follows: Sa helicase inh	MgrA DNA FP
> O=C(O)CCN1C(=O)NC2(CCCCC2)C1=O
    21	·
> COCCOC(=O)C1=C(C)NC(C)=C(C(=O)OCCOC)C1c1cn(-c2ccccc2)nc1-c1cccc([N+](=O)[O-])c1
    ·	-1.8
> COCC(C)NC(=O)Cn1nc(C)c(NC(=O)c2cc(-c3ccc(OC)c(OC)c3)no2)c1C (stereo not given)
    22	·
> COc1ccc(-c2ccnc3c(C#N)cnn23)cc1
    ·	-0.4
> Cn1c(=O)c2c(nc(SCc3ccc(F)cc3)n2C)n(C)c1=O
    -3	1.1
> CC(=O)N1N=C(c2c(-c3ccccc3)c3cc(Br)ccc3[nH]c2=O)CC1c1nc2ccccc2[nH]1 (stereo not given)
    ·	-2.1
> NC(=O)COC(=O)c1cccnc1SCC(=O)Nc1ccccc1OC(F)F
    -11	·
> NC(=O)C1(N2CCCCC2)CCN(C2CC(=O)N(CCc3ccccc3)C2=O)CC1 (stereo not given)
    -11	·
> Cc1c(C(=O)NN=Cc2ccc(-c3ccc(Cl)c(C(=O)O)c3)o2)sc(N)c1C#N
    0	·
> COc1ccc(OCC(=O)NC2Sc3c(OC)ccc(OC)c3N2C)cc1 (stereo not given)
    -1	·
> N#CC(C#N)=CNc1cccc(NC(=O)c2cccc(Cl)c2)n1
    -5	·
> Cc1ccc(-c2noc(C3CCCN(S(=O)(=O)c4ccc5c(c4)OCCO5)C3)n2)cc1 (stereo not given)
    -5	-2.8
> Cc1c(-c2cccc(NC(=O)CCC3CCCC3)c2)nc2ncccn12
    17	·
> NN=C1c2ccccc2-c2ccccc21
    30	·
> O=C(O)CCCC(=O)c1c[nH]c2ccccc12
    13	-1.4
> COC(=O)C1=C(C)N=c2s/c(=C\c3cccc(Br)c3)c(=O)n2C1c1ccc(OC)cc1 (stereo not given)
    ·	-1.4
> O=C1c2cccc3cccc(c23)C(=O)N1CCN1CCN(S(=O)(=O)c2ccc(Cl)cc2)CC1
    ·	-2.7
> Cc1cc2c(cc1N)OCCO2
    12	3.3
> O=c1cc(-c2ccccc2)[nH]c2nc3ccccc3n12
    -28	·
> C/C(=N\c1nnc(Sc2nc3cc(Cl)ccc3s2)s1)N(C)C
    ·	-0.1
> CCc1ccccc1N(CC(=O)N1CCC(Cc2ccccc2)CC1)S(C)(=O)=O
    16	2.7
> O=C(Oc1coc(CSc2nnc(NC(=O)C3CC3)s2)cc1=O)c1cccs1
    9	·
> O=C(COC(=O)C1CC1)Nc1ccc(I)cc1
    3	-0.9
> C=CCN(c1ccccc1)S(=O)(=O)c1c(C)[nH]c(=O)[nH]c1=O
    -3	·
> Cc1nnc(SCC(=O)NCCc2ccccc2)[nH]c1=O
    3	·
> Cn1c(CNC2CCCCC2)c(C#N)c2ccccc21
    17	-2.2
> Cc1cccc(C(=O)OCC(=O)N2CCCc3ccccc32)c1
    0	·
> COc1cc(/C=C2\SC(N)=NC2=O)ccc1Oc1ccc(C(F)(F)F)cc1[N+](=O)[O-]
    ·	2.1
> CN(Cc1nc(-c2ccccc2)no1)C(=O)C1CCCCC1
    7	-3.0
> Cc1cc(NC(=O)Nc2ccccc2)n(-c2ccccc2)n1
    ·	5.2
> Cc1cccc2cc(C#N)c(NCCCNS(=O)(=O)c3ccccc3)nc12
    7	-1.0
> O=C(Cn1c(=O)oc2ccccc21)N1CCc2ccccc21
    19	·
> O=C(O)c1cccc(C(=O)O)c1Br
    ·	0.8
> Cc1ccc2oc(=O)n(CCC#N)c2c1
    ·	0.0
> [O-]c1n[n+](-c2ccc(Cl)cc2)cc2ccccc12
    ·	0.2
> COc1ccc(-c2cn3c4ccccc4n(N)c3n2)cc1OC
    14	1.2
> Cc1ccc(-c2cc(-c3ccc4c(c3)OCO4)c(C#N)c(N)n2)cc1
    2	0.2
> COc1ccc(CC(C(=O)O)N2C(=O)c3ccccc3C2=O)cc1 (stereo not given)
    1	·
> N#C/C(=C\c1cn[nH]c1-c1cccc(Br)c1)C(=O)O
    9	·
> CCCN(C(=O)CC#N)C(=O)Nc1ccc(Cl)cc1
    ·	0.6
> O=C(O)Cn1ccc(=O)[nH]c1=O
    -3	-1.2
> CCOc1ccc(CCNC(=O)c2cn(CC(C)C)c(=O)c3c2c2ccccc2n3C)cc1OCC
    12	1.1
> Cc1cc(C(=O)N/N=C/C=C/c2ccccc2)n[nH]1
    24	·
> CN(C)c1ccc(/C=C2\SC(=O)NC2=O)cc1
    -22	·
> COc1cccc(-c2nn(-c3ccccc3)cc2C(=O)NCC(=O)O)c1
    5	1.6
> CCCNS(=O)(=O)c1ccc2c(c1)CCCC(=O)N2
    15	·
> O=C(Nc1ccc(C#Cc2ccccc2)cc1)C(F)(F)F
    ·	-1.6
> Cc1nc(Cc2nnc(SCc3nc4ccccc4o3)o2)cs1
    -38	·
> COc1cc(C(=O)OCc2ncc(-c3ccccc3)o2)cc(OC)c1C
    5	·
> COc1nc(OC/C(N)=N/O)nc(N2CCOCC2)n1
    8	·

(list continues)
Values run as follows: Sa helicase inh	MgrA DNA FP
> OCCNc1ccc2ccccc2n1
    4	-2.0
> Cc1nn(Cc2nc(-c3ccc4c(c3)OCO4)no2)c(C)c1Br
    9	4.6
> COc1cc2c3c(c1OC)C1(C=CC(=O)C=C1)CC3N(C(=O)c1ccccc1)CC2 (stereo not given)
    14	-3.9
> CC1CC(C)(C)OC(CN2CCCCC2)O1 (stereo not given)
    25	·
> CN(Cc1ccccc1)S(=O)(=O)c1cccs1
    -11	·
> CN1c2ccccc2-c2nc3ccccc3n2C1c1ccncc1 (stereo not given)
    22	·
> COC(=O)c1cc(C(=O)OC)cc(-n2c(C)cc(C3=NNC(=Nc4ccc(OC)cc4)SC3)c2C)c1
    -6	·
> COc1ccc2c(c1)c(CC(=O)O)c(C)n2C(=O)c1ccc(Cl)cc1
    ·	-0.2&1.3&-0.5
> COC(=O)c1cnc(N)s1
    18	·
> CCC(=O)N1CCNC(=O)C1CC(=O)OC (stereo not given)
    10	-2.8

Part of the list above in order of number of heavy atoms, lowest first.
Values run as follows: Sa helicase inh	MgrA DNA FP
> OCCNc1ccc2ccccc2n1
    4	-2.0
> CN1c2ccccc2-c2nc3ccccc3n2C1c1ccncc1 (stereo not given)
    22	·
> COC(=O)c1cc(C(=O)OC)cc(-n2c(C)cc(C3=NNC(=Nc4ccc(OC)cc4)SC3)c2C)c1
    -6	·

(more compounds)
Values run as follows: Sa helicase inh	MgrA DNA FP
> Cc1ccc(NC(=O)CCN2CCCCC2)cc1
    13	-0.3
> O=C(COc1ccc(Cl)cc1Cl)NC1CCSC1=O (stereo not given)
    4	-2.3
> CC1(C)C(C=C(Cl)Cl)C1C(=O)NC1CCS(=O)(=O)C1 (stereo not given)
    -10	·
> OCC1COc2ccccc2O1 (stereo not given)
    0	2.0
> CNC(=O)C1CCCN(c2nn3c(=O)cc(C)nc3s2)C1 (stereo not given)
    1	0.6
> CN(C(=O)COC(=O)Cc1ccc(Cl)cc1)C1CCCCC1
    -3	-3.2
> O=C(NC1CCN(CC(=O)N(c2ccccc2)C2CCCCC2)CC1)c1ccccc1
    ·	-1.0
> O=C1Nc2ccccc2OC1CC(=O)N1CCc2ccccc21 (stereo not given)
    8	·
> CC(C)CCNC(=O)C1CCCN(S(=O)(=O)c2ccc3c(c2)oc(=O)n3C)C1 (stereo not given)
    -14	·
> O=C1OC(c2ccccc2)=N/C1=C\c1ccc(-c2ccccc2)cc1
    ·	2.0
> COc1ccccc1C1=NOC(C(=O)Nc2ccc(C)cc2)C1 (stereo not given)
    -11	·
> O=C(C1CCCN1S(=O)(=O)c1cccc2cccnc12)N1CCc2ccccc21 (stereo not given)
    -2	·
> O=C1CCCC(O)=C1C(C#Cc1ccccc1)C1=C(O)CCCC1=O
    0	13
> O=C(COC(=O)c1ccccc1Nc1ccccc1)c1ccccc1
    8	0.6
> O=C(Nc1c2c(nn1-c1ccccc1)CS(=O)C2)C12CC3CC(CC(C3)C1)C2 (stereo not given)
    -5	·
> COC(=O)C(O)(c1c(C)nn(-c2ccccc2)c1N)C(F)(F)F (stereo not given)
    13	-0.8
> O=C(Cn1c(=O)oc2ccccc21)N(Cc1ccco1)CC1CCCO1 (stereo not given)
    4	·
> c1ccc(Cn2nnnc2CN2CCC(n3cnc4cccnc43)CC2)cc1
    9	3.2
> O=C1OCC2=C1C(c1ccc(F)cc1)Sc1ccccc1N2 (stereo not given)
    22	-0.7
> CC(C(=O)O)c1ccc(C(=O)c2ccccc2)s1 (stereo not given)
    ·	2.0
> Cc1cccc(NC(=S)N=Nc2c(O)n(CN3CCOCC3)c3ccccc23)c1C
    7	·
> O=C(O)CCC(=O)N1CCN(Cc2ccc3c(c2)OCO3)CC1
    5	-3.5
> Oc1ccc(-c2[nH]ncc2Oc2ccccc2)c(O)c1
    12	·
> NC(=O)C1CN(C(=O)Cn2ccc(C(F)(F)F)n2)c2ccccc2O1 (stereo not given)
    8	·
> CCCN1CCN(CC(=O)NC(C)c2ccccc2)CC1 (stereo not given)
    5	4.3
> CC1CCC(C(C)C)C(OC(=O)Cn2c[n+](C)c3ccccc32)C1 (stereo not given)
    5	0.9
> COc1ccc(COCC(O)CNCc2cccnc2)cc1OC (stereo not given)
    -33	·
> COc1ccc(N2C3=[N+](CCCCC3)CC2(O)c2ccccc2)cc1 (stereo not given)
    4	-0.7
> Cn1c(CC(=O)c2ccc(O)cc2O)nc2ccccc21
    7	·
> CCS(=O)(=O)CCSc1nsc(SCCS(=O)(=O)CC)c1C#N
    -2	-0.3

The final four compounds of the part above open the next one:
Values run as follows: Sa helicase inh	MgrA DNA FP
> COc1ccc(COCC(O)CNCc2cccnc2)cc1OC (stereo not given)
    -33	·
> COc1ccc(N2C3=[N+](CCCCC3)CC2(O)c2ccccc2)cc1 (stereo not given)
    4	-0.7
> Cn1c(CC(=O)c2ccc(O)cc2O)nc2ccccc21
    7	·
> CCS(=O)(=O)CCSc1nsc(SCCS(=O)(=O)CC)c1C#N
    -2	-0.3
> CCN(CC)C(=O)CN1C(=O)/C(=C/c2ccccc2)SC1=S
    9	0.1
> COC(=O)c1sc(C(C)(C)C)cc1NS(=O)(=O)c1ccc(OC)cc1
    ·	0.6
> COc1ccc(-c2nc(C#N)c(NCc3ccccc3)o2)cc1
    3	·
> O=C(O)c1cccc(N2CCCC2=O)c1
    17	-0.9
> O=C1NCCCCC1N1CNC(=S)NC1 (stereo not given)
    ·	-0.5
> COc1ccc2c(c1)sc(=NC(=O)C1COc3ccccc3O1)n2C (stereo not given)
    -4	·
> CCOC(=O)C1=C(C)NC(=O)NC1c1cccc(OC)c1O (stereo not given)
    ·	-2.1
> Cc1cc(Cl)ccc1OC(C)C(=O)N1CCc2ccccc21 (stereo not given)
    -9	·
> CCCCOC(=O)c1ccc(-c2n[nH]c(=O)c3ccccc23)cc1
    ·	-3.1
> CCCN=C(Nc1ccc(Cl)cc1)c1cccnc1
    ·	0.8
> Cc1cc(=O)[nH]c(SCC(=O)C23CC4CC(CC(C4)C2)C3)c1C#N
    16	-3.8
> O=S(=O)(c1ccc(-c2ccc(S(=O)(=O)N3CCSCC3)cc2)cc1)N1CCSCC1
    11	-6.1
> Cc1cc(SC2CCOC2=O)nc2ccccc12 (stereo not given)
    8	·
> COc1ccc(OCCCN2CCCCC2)cc1
    -2	·
> O=C(Oc1cccnc1I)c1cccc(C(F)(F)F)c1
    ·	0.8
> O=C(CCc1ccccc1)Nc1ccc(-c2nnc(-c3ccccc3)o2)cc1
    15	-0.3
> N#Cc1cccnc1Sc1ccccc1
    ·	-2.1
> COc1cccc(-c2cc(C(=O)NCCCN3CCOCC3)on2)c1
    21	·
> CCc1ccc(NS(=O)(=O)c2cccs2)cc1
    -6	3.5
> O=C(COc1ccc2ccccc2c1)NCc1ccc2c(c1)OCO2
    -5	-2.0

Single records, from the list above. Screens in order: Sa helicase inh, MgrA DNA FP
CCc1ccc(NS(=O)(=O)c2cccs2)cc1 is listed with -6, 3.5
Cc1cc(SC2CCOC2=O)nc2ccccc12 (stereo not given) is listed with 8, ·
N#Cc1cccnc1Sc1ccccc1 is listed with ·, -2.1

More records follow.
Values run as follows: Sa helicase inh	MgrA DNA FP
> Cc1cc(C)c(C)c(S(=O)(=O)N2CCC(C(=O)N(C)Cc3nc4ccccc4c(=O)[nH]3)CC2)c1C
    17	·
> O=C1c2cccc3c(Cl)ccc(c23)C(=O)N1Cc1ccccc1
    ·	4.6
> O=C(Cn1c(=O)n(-c2ccc(F)cc2)c(=O)c2ccccc21)NCc1ccccc1
    1	·
> Cc1ccc(-n2c(=O)c(C#N)cc3c(=O)n4ccccc4nc32)cc1
    3	-0.1
> Oc1cc(Cc2ccccc2)cnc1CN1CCOCC1
    ·	-1.8
> O=c1[nH]cc(CO)c(=O)[nH]1
    20	·
> O=C(CNc1cccc(Oc2ccccc2)c1)N1CCc2ccccc21
    12	-1.1
> COC(=O)Nc1ccc(S(=O)(=O)Nc2cc(OC)nc(OC)n2)cc1
    4	-2.3
> O=C(COc1nc2ccccc2nc1N1CCOCC1)NC1CCCCC1
    -3	·
> O=C(Nc1ccccc1N1CCCC1)c1cccs1
    -4	-2.0
> c1ccc2sc(Cc3nn[nH]n3)nc2c1
    -56	1.7
> Oc1[nH]c2ccccc2c1C=NCCCN1CCOCC1
    -3	2.8
> CSc1ccc(S(=O)(=O)N2CC(=O)Nc3ccccc32)cc1
    9	5.2
> O=C(O)c1c(Cl)nc2ccccn12
    -20	-2.8
> CCCCn1c(CC(=O)O)nc2cc(S(=O)(=O)N3CCOCC3)ccc21
    10	·
> O=C(CSc1nc2ccccc2nc1N1CCOCC1)Nc1ccccc1
    4	·
> CS/C(N)=N/N=C/c1c(F)cccc1Cl
    ·	-0.9
> Cc1cc2c(cc(C(=O)NCc3cccnc3)n2Cc2ccc(Cl)cc2)o1
    -1	·
> Cc1c(C(=O)NC(=S)Nc2ccc(N3CCOCC3)cc2)oc2ccccc12
    15	0.0
> O=C(c1ccc(Cl)c(Cl)c1)N(c1ccccn1)c1ccccn1
    -11	2.8

Source: PubChem BioAssay (ICCB-Longwood Screening Facility, Harvard Medical School)

This is a subset; count on the stated rates, not on these rows.
